# High-throughput results as filed in PubChem.
# Sa growth 42C = blocks Staphylococcus aureus growth; S. aureus RN4220 growth, OD600, 20 h, 42 °C; hits give low values; relative growth, % (concentration not given with the values); 170,000 tested, 0.53% active; AID 720641;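 active = growth at 42 °C up to 50% and 20 or more points under that at 30 °C, or under 10% at both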;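 also: 300 nL library stock went into each well; scaled to the means of positive and negative controls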
# GIV Gai3 FP = blocks GIV peptide binding to rat Galpha-i3 | P08753 | Galpha-i3/FITC-GIV peptide fluorescence polarization, 90 min; hits give low values; scaled: aluminum fluoride 0%, vehicle 100% | percent of control (FP), % (concentration not given with the values) | 210,000 tested, 0.42% active | AID 1224905;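 active = replicate mean at 85% of control or lower, very high polarization wells dropped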;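 also: wells of about 15 µL received 100 nL stock; the first replicate is given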
# Target sequence (P08753 whole entry, looked up): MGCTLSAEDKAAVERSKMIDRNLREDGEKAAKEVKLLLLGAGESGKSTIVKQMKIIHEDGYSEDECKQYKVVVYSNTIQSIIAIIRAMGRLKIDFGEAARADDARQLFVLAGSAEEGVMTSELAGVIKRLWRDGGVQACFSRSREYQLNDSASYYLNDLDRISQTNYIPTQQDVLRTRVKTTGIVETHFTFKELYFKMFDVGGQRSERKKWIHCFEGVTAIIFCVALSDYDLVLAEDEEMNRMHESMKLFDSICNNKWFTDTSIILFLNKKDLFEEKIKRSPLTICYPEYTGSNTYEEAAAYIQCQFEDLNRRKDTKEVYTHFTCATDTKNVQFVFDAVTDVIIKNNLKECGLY
# HCMV NEC inh = disrupts HCMV UL50-UL53 complex binding. HTRF UL50-UL53 interaction, normalized percent inhibition. AID 1918969. 190,000 tested, 0.15% active. inhibition, % (concentration not given with the values);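 active = both replicates at 50% or more, plus weaker picks with an unusually low signal ratio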;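 also: stock transfer was 100 nL into about 20 µL; 0% = negative control wells and 100% = wells with untagged competitor protein; inactives centre near -12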
# Sa growth 42C second temp = further read-out of Sa growth 42C, marked with its call; relative growth, %; measured here: growth at 30 °C;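 optical density after 20 h as mean of two plates; 100% = untreated growth and lower means inhibition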
# Starred values were filed as active, the others as inactive; x = not tested or not shown; & = joins results of further samples.
SMILES,Sa growth 42C,Sa growth 42C second temp,GIV Gai3 FP,HCMV NEC inh
COc1ccccc1NC(=O)COC(=O)C1CCCC1,102,92,x,-12
CCN(Cc1ccccc1)S(=O)(=O)c1ccc(-c2ccc(=O)[nH]n2)o1,105,76,106,-30
Cc1ccc(-c2nnc(Nc3cccc(O)c3)c3ccccc23)cc1S(=O)(=O)N1CCN(C)CC1,123,86,109,-43
CN(C)c1cccc2c1c(NC(=O)c1cc(Cl)sc1Cl)nn2C,94,70,99,4
COc1cc(S(=O)(=O)N2CCCC2c2nc3ccccc3s2)ccc1NC(C)=O (stereo not drawn),121,104,x,9
Cc1sc(C)c(S(=O)(=O)N2CCC(N3CCCCC3)CC2)c1-c1ccno1,x,x,114,-33
CCc1c(CN2CCN(c3ccc(F)cc3)CC2)csc1C,101,65,105,x
O=C(CCn1nnc2cc(S(=O)(=O)N3CCCC3)ccc21)NCc1cccnc1,x,x,105,-13
Brc1ccc(CSc2nc3ccccc3o2)cc1,108,110,97,-11
CCCCn1c(N)c(N(CC)C(=O)/C=C/c2ccc(Cl)cc2)c(=O)[nH]c1=O,88,87,x,-17
Cc1ccc(Cl)cc1N1CCN(C(=O)CCN2C(=O)COc3ccccc32)CC1,121,90,107,x
CN1C(=O)/C(=C/c2ccc(C(=O)N3CCC(Cc4ccccc4)CC3)cc2)Oc2ccccc21,97,92,105,x
NC(=O)N/N=C/c1sc(N2CCCCC2)nc1-c1cccs1,90,46,x,-58
Cc1ccc(-n2c(SCC(=O)N3CCCc4ccccc43)nc3c([nH]c4ccccc43)c2=O)cc1,109,105,107,x
CCC(C)NC(=O)N1c2ccccc2Sc2ccccc21 (stereo not drawn),107,66,99,x
Cc1ccc(-c2cc(-c3ccc4c(c3)NC(=O)CO4)nc3c2COc2ccc(C)cc2-3)cc1,91,97,106,-22
COc1ccc(/C=C\c2onc(C)c2S(=O)(=O)N2CCC(C(=O)Nc3ccc(Cl)cc3)CC2)cc1,103,87,106&100,-35&-21
Cc1ccccc1NC(=O)CSc1nnc(-c2cccc(Cl)c2)o1,103,84,99,-10
Cc1ccc(C)c2nc(SCC(=O)OC(C)C)c(C#N)cc12,103,112,109,-4
C=CCn1c(CN(c2ccc(F)cc2)S(C)(=O)=O)nnc1SCC(=O)N1CCCC1,x,x,103,-10
Cc1cc(C)c(NC(=O)Cn2c(=O)n(CC(=O)NCCc3ccccc3)c(=O)c3ccccc32)c(C)c1,109,106,102,-16
COc1cccc(-c2cc(-c3nc(-c4cccc(OC)c4OC)no3)[nH]n2)c1,x,x,117,-14
O=C(O)CC1(CC(=O)Nc2cccc(CO)c2)CCCC1,81,98,x,-27
O=C(NC1CCS(=O)(=O)C1)c1cccc(S(=O)(=O)N2CCCC2)c1 (stereo not drawn),96,98,105,4
COc1ccccc1NC(=O)c1cc2c(COC(C)=O)cnc(C)c2oc1=O,x,x,101,-48

# The final seven records of the part before open the next one:
SMILES,Sa growth 42C,Sa growth 42C second temp,GIV Gai3 FP,HCMV NEC inh
Cc1ccc(C)c2nc(SCC(=O)OC(C)C)c(C#N)cc12,103,112,109,-4
C=CCn1c(CN(c2ccc(F)cc2)S(C)(=O)=O)nnc1SCC(=O)N1CCCC1,x,x,103,-10
Cc1cc(C)c(NC(=O)Cn2c(=O)n(CC(=O)NCCc3ccccc3)c(=O)c3ccccc32)c(C)c1,109,106,102,-16
COc1cccc(-c2cc(-c3nc(-c4cccc(OC)c4OC)no3)[nH]n2)c1,x,x,117,-14
O=C(O)CC1(CC(=O)Nc2cccc(CO)c2)CCCC1,81,98,x,-27
O=C(NC1CCS(=O)(=O)C1)c1cccc(S(=O)(=O)N2CCCC2)c1 (stereo not drawn),96,98,105,4
COc1ccccc1NC(=O)c1cc2c(COC(C)=O)cnc(C)c2oc1=O,x,x,101,-48
CCC(=NCc1ccc(C#N)cc1)c1ccccc1O,97,93,102,-33
COc1ccc(CCNC(=O)c2ccco2)cc1OC,116,101,102,1
O=C(NC1=NCCS1)c1c(-c2ccc(F)cc2)nc2n1CCS2(=O)=O,x,x,104,-26
CC1=C(C(=O)Nc2ccccc2)C(c2ccncc2)n2nc(SCc3ccccc3)nc2N1 (stereo not drawn),108,87,104,-2
C=CCN=C1SC(C)(C)C(=O)N1S(=O)(=O)c1ccc(C)cc1,109,92,96,x
Cc1cc(CN(C)C)c(O)c(C2(C)CCCCC2)c1,102,91,104,-19
Cc1cccc(-c2nnc3c4c5c(sc4ncn23)CC(C)CC5)c1 (stereo not drawn),x,x,96,-11
CCc1ccc(-n2c(=O)c3ccccc3n(Cc3ccccc3C#N)c2=O)cc1,96,92,103,-8
FC(F)(F)c1ccnc(NCCN=Cc2ccccc2)n1,95,94,110,-31
CC(C)(Oc1ccc(Br)cc1)C(=O)Nc1cc(-c2nc3ccccc3[nH]2)ccc1Cl,94,83,101,-4
Cc1cccc(N2C(=O)C3C4C=CC(C4)C3C2=O)c1 (stereo not drawn),94,88,95,-18
NC(=NC(=O)c1cccs1)c1cccs1,106,74,103,-3
COC(=O)n1c(=O)oc2cc(S(=O)(=O)Nc3ccc(C)cc3)ccc21,88,103,93,-5
COc1cc(NC(=O)CCc2c(C)nc3cc(-c4cccc(F)c4)nn3c2C)cc(OC)c1OC,100,76,102,0
COc1cccc(CN(C)C(=O)c2cccnc2SC)c1,88,84,x,-20
OCC[n+]1c(-c2ccccc2)csc1Nc1ccccc1,95,76,x,-4
Cc1ccc2c(c1)cc(CN(Cc1ccco1)S(=O)(=O)c1ccccc1)c1nnnn12,92,89,102,0
CC1(C)Cc2nc3sc4c(NN)ncnc4c3cc2CO1,91,104,106,x
Cc1ccc(NC(=O)CCC(=O)N2CCOc3ccccc32)c(Cl)c1,122,81,98,-11
COc1cc(OC)c(NC(=O)C2CCCN(c3ncnc4onc(C)c34)C2)cc1Cl (stereo not drawn),95,88,106,-34
CS(=O)(=O)Nc1nc2n(n1)C(c1ccccc1)C=C(c1ccccc1)N2 (stereo not drawn),92,66,53*,x
NC(N)=NS(=O)(=O)c1ccc(NC(=O)OC2CCCC2)cc1,113,76,103,x
CC(=O)N1N=C(c2n[nH]c3c2CCCC3)OC1c1c(C)nn(-c2ccccc2)c1C (stereo not drawn),x,x,99,4
CC1CCN(Cc2ccc(NC(=O)COCc3cc(-c4ccco4)on3)cc2)CC1,100,80,106,-24
CCOC(=O)c1cc(-c2ccccn2)nc2c1c(=O)n(CC(=O)OC)c(=O)n2Cc1ccccc1,81,94,x,-22

# Continued.
SMILES,Sa growth 42C,Sa growth 42C second temp,GIV Gai3 FP,HCMV NEC inh
CCOc1ccc(NC(=O)CC2SC(=O)N(c3ccccc3)C2=O)cc1 (stereo not drawn),71,69,103,-32
COc1ccccc1CNC(=O)C1CCCN1S(=O)(=O)c1cc2c(cc1C)NC(=O)C(C)O2 (stereo not drawn),x,x,98,13
COc1ccc(-n2ccn(CC(=O)NCc3ccc(C)cc3)c(=O)c2=O)cc1OC,122,87,96,-27
O=S(=O)(c1ccccc1)N1CCCN(c2nc3cc(Cl)ccc3n3cccc23)CC1,x,x,111,-5
COC(=O)C1Cc2ccccc2CN1S(=O)(=O)c1ccc(C)cc1 (stereo not drawn),105,90,111,x
Cc1c(NC(=O)CC(C)C)cccc1-c1nc2cccnc2s1,98,105,106,4
CCOC(=O)C1=C(CN(C)Cc2ccccc2)NC(=O)NC1c1ccccc1 (stereo not drawn),76,72,103,-8
COc1cccc(NC(=O)CSC2=Nc3ccccc3C3=NC(CCC(=O)NCc4ccco4)C(=O)N23)c1 (stereo not drawn),81,88,102,x
O=C(c1cc(-c2ccc(Br)cc2)nc2ccccc12)N1CCCC1,111,93,x,-29
CCOC(=O)Cc1ccc(NC(=O)n2ncc3cc(Cl)ccc32)cc1,112,92,102,-18
Cc1ccccc1Nc1c(-c2c[nH]c3ccccc23)nc2ccc(Cl)cn12,100,87,101,-9
Cc1cc(/C=C2\NC(=O)NC2=O)c(C)n1-c1ccc(F)c(Cl)c1,x,x,112,1
O=C(O)CCCn1c(=S)[nH]c2cc3c(cc2c1=O)OCO3,104,95,99,x
COC(=O)c1ccc(N=C2SC(C(=O)Nc3ccccc3OC)CC(=O)N2C)cc1 (stereo not drawn),x,x,104,-24
COC(=O)c1cn(NC(=O)C2CCCCC2)c(=O)c2ccccc12,119,88,96,x
CC(=O)N(CN1C(=O)C2CC=CCC2C1=O)c1cccc(Cl)c1 (stereo not drawn),94,88,108,-7
CCOC1(OCC)N=C(N)c2ccccc21,110,101,105,-37
O=c1c2[nH]c3ccccc3c2nc(SCCC2OCCO2)n1-c1ccccc1F,90,77,106,-27
Cc1cc(NCCO)cc(=O)n1Cc1ccco1,92,91,104,-17
COc1ccc2c(C)nc(Nc3nc4ccccc4c(=O)[nH]3)nc2c1,x,x,103,-18
CC(C)CCOC(=O)CCN1C(=O)/C(=C/c2ccccc2)SC1=S,x,x,104,-10
CSc1cccc(NC(=O)CC(c2ccc(F)cc2)N2Cc3ccccc3C2=O)c1 (stereo not drawn),98,72,103,x
Cc1cccc(N(Cc2cc(=O)n3ccccc3n2)C2=NC3CS(=O)(=O)CC3S2)c1 (stereo not drawn),110,78,105,x
COc1ccc(NC(=O)CCc2c(C)nc3nc(CN)nn3c2C)c(OC)c1,x,x,110,1
Cc1nnc(N/N=C/c2c(O)n(-c3cccc(C(F)(F)F)c3)c(=O)c3ccccc23)[nH]c1=O,93,87,x,-26

# Looked up above.
# HCMV NEC inh with CC(C)CCOC(=O)CCN1C(=O)/C(=C/c2ccccc2)SC1=S → -10
# Sa growth 42C second temp with CC(=O)N(CN1C(=O)C2CC=CCC2C1=O)c1cccc(Cl)c1 (stereo not drawn) → 88

# Following part:
SMILES,Sa growth 42C,Sa growth 42C second temp,GIV Gai3 FP,HCMV NEC inh
CCCC(=O)N1CCCC(c2nc(-c3cccs3)no2)C1 (stereo not drawn),94,70,99,13
CCc1ccc2[nH]c3nc(=S)[nH]nc3c2c1,92,72,98,x
Cc1oc2ncnc(N3CCCCC3)c2c1C(=O)N1CCOCC1,94,80,106,-26
O=C(CSc1ncc(C(F)(F)F)cc1Cl)N(c1ccccc1)C1CCS(=O)(=O)C1 (stereo not drawn),111,88,x,8
CC(C)OC(=O)c1cccc(-c2nn[nH]n2)c1,82,84,x,-26
COc1ccc(NC(=O)c2c(C(=O)Nc3ccccc3)sc3nc(C)cc(=O)n23)cc1,103,76,100,-14
CC1CCN(CCCNC(=O)c2coc3nc4ccccc4nc23)CC1,83,90,102,-10
CC1(C(=O)N2CCOCC2)CCC(C(=O)N2CCOCC2)C1(C)C (stereo not drawn),109,84,x,-2
CC1CCCCN1C(=O)COC(=O)c1ccc2[nH]c3c(c2c1)CCCC3 (stereo not drawn),91,92,x,-12
CC(C)(C)c1ccc(OCC(=O)Nc2ccc3c(c2)oc2ccccc23)cc1,103,100,103,x
Cc1c(Nc2cc(=O)oc3ccccc23)c(=O)n(-c2ccccc2)n1C,93,87,106,-21
COc1ccccc1CNC(=O)CN1C(=O)COc2ccc(S(=O)(=O)Nc3ccccc3)cc21,78,98,113,x
Cc1cccc(N2CCN(CCNC(=O)CCn3c(=O)c4cccn4c4cccnc43)CC2)c1C,94,88,101,x
Cc1ccc(CN2COc3c(Cl)cc4c(-c5ccccc5)cc(=O)oc4c3C2)cc1,110,94,102,-40
CCOc1ccc(-c2cccc(NS(=O)(=O)c3ccc(F)cc3F)c2)nn1,120,102,102,x
Cc1cc2ncc(C(=O)Nc3ccccc3)c(C)n2n1,106,78,x,-13
COc1ccc(Br)c2c1-c1nc(NC(C)=O)sc1C2,107,91,104,-7
COCCn1c(Cc2ccccc2)nnc1SCC(=O)N(C)C,121,101,106,-7
COc1ccc(N2C(=O)/C(=C/c3ccc(OCC(=O)O)c(Br)c3)C(=O)NC2=S)cc1,x,x,78*,-34
Cn1c(=O)c(-c2noc(CCC(=O)N3CCOCC3)n2)nn(-c2ccccc2)c1=O,x,x,109,-107
CCC(=O)NC(=S)Nc1cc(-c2nc3ncccc3o2)ccc1C,111,101,98,0
Cc1nc(C)c(-c2n[nH]c(=S)n2-c2ccccc2C(F)(F)F)s1,89,86,113,-20
COc1ccccc1N1C(=O)N(c2ccc(F)cc2)C2CS(=O)(=O)CC21 (stereo not drawn),x,x,100,-16
CSc1nnc2n(Cc3cccs3)c(=O)c3sccc3n12,x,x,97,4
CSc1ccc(/C=C2\SC(=O)N(C)C2=O)cc1,100,104,102,-24

# Complete entries, looked up by structure. Screens in order: Sa growth 42C, Sa growth 42C second temp, GIV Gai3 FP, HCMV NEC inh
# CC1(C(=O)N2CCOCC2)CCC(C(=O)N2CCOCC2)C1(C)C (stereo not drawn) is listed with 109, 84, x, -2
# COc1ccc(Br)c2c1-c1nc(NC(C)=O)sc1C2 is listed with 107, 91, 104, -7

# The list continues:
SMILES,Sa growth 42C,Sa growth 42C second temp,GIV Gai3 FP,HCMV NEC inh
COc1cc2nc(SCC(=O)Nc3ccccc3C)n3nc(CCn4c(C)nc5ccccc54)nc3c2cc1OC,85,88,101,-2
COc1ccc(OCc2nnc(-c3ccccc3)o2)cc1,88,91,103,11
Cc1cc(=O)n2[nH]c(CN(C(=O)COc3ccccc3)c3ccccc3)nc2n1,x,x,106,-28
Nc1nc(COc2cccc3cccnc23)nc(Nc2ccccc2)n1,88,90,101,-4
Nc1nc(-c2ccccc2)nn1C(=O)c1cccs1,97,78,97,2
CCOC(=O)c1sc(NC(=O)CN2C(=O)c3ccccc3C2=O)c(C(=O)OCC)c1C,98,94,111,3
COc1ccc(C2=NN(C(=O)c3ccc(Br)o3)C(c3ccccc3)C2)cc1OC (stereo not drawn),x,x,105,-16

# Random draw from the library; 0.82% or so of the library scored in one or more.
